# High-throughput results deposited in PubChem BioAssay by ICCB-Longwood Screening Facility, Harvard Medical School.
# Sa growth 42C – S. aureus growth inhibition; S. aureus RN4220 growth, OD600, 20 h, 42 °C; stronger effect = lower value; relative growth, % (no concentration beside the values); actives 0.53% (n = 170,000); AID 720641;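 active = growth at 42 °C up to 50% and 20 or more points under that at 30 °C, or under 10% at both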;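 note: 300 nL library stock went into each well; scaled to the means of positive and negative controls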
# HCMV NEC inh – inhibitors of HCMV UL50-UL53 nuclear egress complex interaction; HTRF UL50-UL53 interaction, normalized percent inhibition; inhibition, % (test concentration not listed); actives 0.15% (n = 190,000);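 active = both replicates at 50% or more, plus weaker picks with an unusually low signal ratio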;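 note: stock transfer was 100 nL into about 20 µL; 0% = negative control wells and 100% = wells with untagged competitor protein; inactives centre near -12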
# GIV Gai3 FP – inhibitors of GIV GBA-motif binding to rat Galpha-i3. AID 1224905. P08753. percent of control (FP), % (no concentration beside the values). actives 0.42% (n = 210,000). Galpha-i3/FITC-GIV peptide fluorescence polarization, 90 min; stronger effect = lower value; scaled: aluminum fluoride 0%, vehicle 100%;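 active = replicate mean at 85% of control or lower, very high polarization wells dropped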;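 note: wells of about 15 µL received 100 nL stock; the first replicate is given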
# Target sequence (P08753 whole entry, looked up): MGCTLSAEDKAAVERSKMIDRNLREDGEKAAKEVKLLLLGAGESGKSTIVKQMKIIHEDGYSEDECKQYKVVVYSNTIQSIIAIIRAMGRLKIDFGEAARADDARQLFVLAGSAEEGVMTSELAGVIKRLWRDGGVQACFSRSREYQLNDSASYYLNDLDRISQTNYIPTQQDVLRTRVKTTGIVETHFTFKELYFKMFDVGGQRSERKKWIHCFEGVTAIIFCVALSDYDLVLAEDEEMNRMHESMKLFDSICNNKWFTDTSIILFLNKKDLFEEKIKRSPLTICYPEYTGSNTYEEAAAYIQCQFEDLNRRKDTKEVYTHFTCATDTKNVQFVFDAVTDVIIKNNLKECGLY
# Sa growth 42C second temp – second read-out of Sa growth 42C, no call of its own (marks repeat the call); relative growth, %; measured here: growth at 30 °C;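 optical density after 20 h as mean of two plates; 100% = untreated growth and lower means inhibition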
# Numbers without * were called inactive; nt = not tested or not shown; & = joins results of further samples.
Structure	Sa growth 42C	Sa growth 42C second temp	HCMV NEC inh	GIV Gai3 FP
O=C1NS(=O)(=O)c2ccccc2S(=O)(=O)c2ccccc21	97	92	-10	104
CC1=C(c2ccc(C)c(C)c2)S(=O)(=O)N=C1N1CCC(C(=O)NCCc2ccco2)CC1	93	83	nt	102
O=C(O)CC(c1ccccc1)c1cc(Br)ccc1O (stereo not given)	91	86	0	102
Cc1cccc(C(=O)N(CCN2C(=O)c3ccccc3C2=O)c2cccc3ccccc23)c1	104	110	-7	nt
O=C(Nc1ccccc1)c1cn(-c2ccccc2)nc1-c1ccccc1	114	92	-8&-22	100&101
CCc1cccc(C)c1N=C(C#N)C1=C(O)c2ccccc2C1=O	98	99	-8	97
Cc1ccc(-c2c(CN3CCN(c4cccc(C)c4)C(C)C3)csc2C)cc1 (stereo not given)	92	85	nt	106
CCCCN(c1ncnc2onc(-c3ccc(F)cc3)c12)C1CCN(C(C)=O)CC1	107	78	-30	110

# A different layout for part of the listing above.
# Results follow in this order: Sa growth 42C | Sa growth 42C second temp | HCMV NEC inh | GIV Gai3 FP
> O=C(O)CC(c1ccccc1)c1cc(Br)ccc1O (stereo not given)
 : 91 | 86 | 0 | 102
> Cc1cccc(C(=O)N(CCN2C(=O)c3ccccc3C2=O)c2cccc3ccccc23)c1
 : 104 | 110 | -7 | nt
> O=C(Nc1ccccc1)c1cn(-c2ccccc2)nc1-c1ccccc1
 : 114 | 92 | -8&-22 | 100&101

# New compounds follow:
Structure	Sa growth 42C	Sa growth 42C second temp	HCMV NEC inh	GIV Gai3 FP
COCCOC(=O)c1c(C)oc2cc(Br)c(OCC(=O)c3ccc(OC)cc3)cc12	105	94	13	99
Cc1cc(Cl)ccc1OC(C)C(=O)OCC(=O)Nc1ccc2[nH]c(=O)[nH]c2c1 (stereo not given)	103	94	-9	nt
CCn1c(CCc2ccccc2)nnc1SCC(=O)Nc1cccc(OC)c1	109	95	-7	105
CC1CCN(C(=O)COC(=O)c2ccc(Cl)nc2)CC1	128	89	-26	nt
COc1ccc(S(=O)(=O)Cc2ccc(C(=O)NC3CCCc4ccccc43)o2)cc1 (stereo not given)	106	87	7	105
O=C(Nc1ccc(O)c(-c2nc3ccccc3o2)c1)c1ccc2c(c1)OCCO2	nt	nt	8	123
COc1ccc(Cl)cc1NC(=O)COc1ccccc1	83	79	-13	nt
CC(C)C1C(c2ccccc2)N(C)C(c2ccccc2)CC1(O)c1ccccc1 (stereo not given)	100	96	5	nt

# Next part.
Structure	Sa growth 42C	Sa growth 42C second temp	HCMV NEC inh	GIV Gai3 FP
Clc1ccc(-c2nnn3c2nc(NCc2ccco2)c2ccccc23)cc1	86	84	-22	103
C[n+]1ccccc1-c1nc2ccccc2s1	109	92	nt	101
COc1ccccc1C1=NS(=O)(=O)N(C)C(C(=O)NCC2CCCO2)=C1 (stereo not given)	nt	nt	-102	101
COc1ccccc1NC(=O)NCc1nc2nc(C)cc(C)n2n1	103	88	-3	108
N#CC(C(=O)C1CCCCC1)c1nc2ccccc2s1 (stereo not given)	49	14	-4	nt
COc1ccc(N2CC(C(=O)Nc3ccccc3-c3nc(-c4ccc(C)cc4)no3)CC2=O)cc1 (stereo not given)	99	92	7	97
N#CC1=C(N)OC2=C(C(=O)CC(c3ccccc3)C2)C12C(=O)Nc1ccc(Br)cc12 (stereo not given)	nt	nt	-19	99
CCOC(=O)C1=C(C)Nc2ccccc2N=C1NC(=O)C1CC2C=CC1C2 (stereo not given)	96	93	-23	nt

# Continued:
Structure	Sa growth 42C	Sa growth 42C second temp	HCMV NEC inh	GIV Gai3 FP
Cc1ccc(C)c(N2CCN(CCCNC(=O)c3ccc4nc(N5CCC(C)CC5)sc4c3)CC2)c1	106	87	-17	102
CCn1c(=O)c(C(=O)Nc2ccc(Cl)cn2)c(O)c2ccccc21	118	100	-1	105
CC1Cc2cc(S(=O)(=O)NN3CCOCC3)ccc2N1C(=O)C1CC1 (stereo not given)	105	96	nt	101
Cc1c(-c2nnc(C(=O)NCCN3CCC(C)CC3)o2)oc2ccccc12	nt	nt	-22	103
CCSc1nn(CC(=O)Nc2cc(OC)cc(OC)c2)c(N)c1S(=O)(=O)c1ccc(C)cc1	nt	nt	-20	100
O=C1CCc2cc(C(=O)CSc3nnnn3C3CCCC3)ccc2N1	92	72	-11	nt
O=C1c2ccccc2C(=O)N1c1nccc(Br)c1Br	119	95	4	nt
Cc1ccc(C)n1-c1ccc(CC(=O)O)cc1	87	61	-23	36*

# (cont.)
Structure	Sa growth 42C	Sa growth 42C second temp	HCMV NEC inh	GIV Gai3 FP
O=C(NCCc1ccccc1)c1ccc(CS(=O)(=O)c2ccc(Cl)cc2)o1	113	91	nt	99
Cc1ccc(C#N)c(SCC(=O)O)n1	90	100	-19	100
O=C(O)CCc1ccccc1O	82	87	-14	nt
Cc1cccc(NC(=O)Cn2nc3c4ccccc4n(Cc4ccccc4)cc-3c2=O)c1	98	96	nt	107
CC1Cc2cc(S(=O)(=O)N(C)CC(=O)Nc3ccc(Cl)cc3)ccc2N1C(=O)C1CC1 (stereo not given)	nt	nt	-13	107
O=S(=O)(c1ccc(F)cc1F)n1nccc1-c1ccc(-c2ccc(F)cc2F)o1	89	93	-8	102
Cc1nn(C(C)C(=O)N2CCCC2)c(=O)c2c(-n3cccc3)n(-c3ccccc3)nc12 (stereo not given)	nt	nt	5	100
COC(=O)c1ccc(NC(=O)Cn2nc(C(=O)Nc3ccc(C)cc3)ccc2=O)cc1	109	71	nt	102

# Next section:
Structure	Sa growth 42C	Sa growth 42C second temp	HCMV NEC inh	GIV Gai3 FP
Cc1ccc(OCC(O)Cn2c(C(C)C)nc3ccccc32)c(C)c1 (stereo not given)	nt	nt	-18	110
CCc1nc2ccccc2c2nc(NC(=O)C(F)(F)F)nn12	111	77	nt	104
COc1ccccc1OCCSc1nc2ccccc2n1CC(=O)N1CCOCC1	91	93	4	104
CCOC(=O)COc1nc(-c2ccccc2)sc1C(=O)OCC	96	73	-37	110
Cc1cc(C)nc(SCC(=O)N2CCOCC2)n1	82	83	-13	103
Cc1ccccc1CN1C(=O)C(O)(CC(=O)c2ccc3c(c2)CCCC3)c2ccccc21 (stereo not given)	98	89	nt	101
COc1ccc(O)c(-c2cn[nH]c2-c2cccs2)c1	117	77	-7	99
CCOC(=O)c1ccc(NC(=O)C(CC)Sc2nncn3c2cc2oc(C)cc23)cc1 (stereo not given)	90	91	nt	106

# Carrying on.
Structure	Sa growth 42C	Sa growth 42C second temp	HCMV NEC inh	GIV Gai3 FP
O=C(COC(=O)Cn1cnc2ccccc2c1=O)NC1CCCC1	82	90	-17	nt
CCc1ccc(CNC(=O)CN2C(=O)CSc3c2c(C)nn3-c2ccccc2)cc1	95	96	nt	111
Cn1c(NC(=O)c2cc(-c3ccc4c(c3)OCO4)nc3ccccc23)cc(=O)n(C)c1=O	nt	nt	-5	111
COc1ccc(-n2cc(C#N)c(=O)[nH]c2=O)cc1	90	86	-30	103
Cc1nn(-c2ccccc2)c(C)c1-c1nnc(-c2ccc(Cl)cc2)o1	94	86	-2	98
Cc1cccn2c(=O)c3cc(C(=O)NC(C)c4ccccc4)c(=N)n(CCOCCO)c3nc12 (stereo not given)	103	86	-65	102
CN1C2=C(C#N)C(=O)C(c3ccccc3)N2c2ccccc21 (stereo not given)	95	91	-3	nt
CC1C(O)=C(c2nc3ccccc3[nH]2)C(=N)N1c1ccccc1 (stereo not given)	113	95	4	111

# Further structures follow.
Structure	Sa growth 42C	Sa growth 42C second temp	HCMV NEC inh	GIV Gai3 FP
O=C1C(C=NCCCN2CCOCC2)=C(O)c2ccccc21	96	95	-62	99
Cc1cccc2cc3c(nc12)N(C(=O)c1ccc(Br)cc1)CC3	nt	nt	-13	97
Oc1oc(-c2ccc(Br)cc2)nc1C=Nc1ccccc1	103	75	nt	96
CCOc1ccccc1CNC(=O)CCn1c(=O)c2cccn2c2ccc(F)cc21	111	86	-2	99
Cc1nn2c(NC(=O)CSc3nnc4sc5ccccc5n34)csc2nc1=O	nt	nt	-12	106
COc1ccc(CCNC(=O)Cn2nc(-c3ccccc3)ccc2=O)cc1OC	91	85	-6	109
COc1cccc(CNC(=O)c2cc3c(-c4ccccc4F)nn(C)c3s2)c1	95	77	-20	102
Cc1ccc(N=Cc2nc(-c3ccccc3Br)oc2O)c([N+](=O)[O-])c1	nt	nt	-26	102

# (continued)
Structure	Sa growth 42C	Sa growth 42C second temp	HCMV NEC inh	GIV Gai3 FP
COc1cccc(CNCCSc2nnnn2C)c1OCc1ccc(Cl)cc1	117	75	1	104
Cc1ccc(Nc2nc(N)nc(COC(=O)CN3CCCC3=O)n2)cc1	66	84	-19	nt
COC(OC)c1ccc2c(N)c(C(=O)Nc3ccccc3)sc2n1	101	81	-62	102
O=C(Nc1ccc2c3c(cccc13)S(=O)(=O)N2)c1ccccc1	104	79	-35	nt
CC(=O)Oc1ccccc1C(=O)OCC(=O)c1ccc(OCc2ccccc2)cc1	64	55	-3	101
CN(C)c1ccc(/C=C2\SC(=O)N(Cc3ccccc3)C2=O)cc1	73	87	nt	154
Cc1nnc(SCc2cc(=O)oc3cc(O)ccc23)s1	113	91	-35	99
CSc1ncc(Cl)c(C(=O)Nc2sc3c(c2C(=O)NCc2ccco2)CCCC3)n1	105	87	-9	108

# The listing continues.
Structure	Sa growth 42C	Sa growth 42C second temp	HCMV NEC inh	GIV Gai3 FP
N#Cc1ccccc1NCc1ccccc1	103	102	1	103
O=c1c(-c2nc(-c3ccc(Cl)cc3)no2)cnc2n1CCS2	117	102	15	109
N#C/C(=C\c1cn(Cc2ccccc2)c2ccccc12)C(=O)Nc1ccccc1O	119	104	-10	117
O=C(NC1CCCc2ccccc21)c1cc2ccccn2n1 (stereo not given)	nt	nt	-22	109
CC(=O)c1ccc(N2CCN(c3nc4ccccc4c4nc(-c5cccc(C)c5)nn34)CC2)cc1	90	77	8	103
CC1=C(C#N)C(c2ccc(C#Cc3ccccc3)s2)C2=C(CCCC2=O)N1 (stereo not given)	92	84	-2	105
COC(=O)C1=C(Nc2ccccc2NC(=O)c2cccs2)CSC1	87	88	-3	107
CCCN1CCN(C(=O)c2cccc3c2C(=O)N(CCOC)C3)CC1	101	93	-5	101

# Next part
Structure	Sa growth 42C	Sa growth 42C second temp	HCMV NEC inh	GIV Gai3 FP
Cc1cc(C)nc(NS(=O)(=O)c2ccc(NC(=O)C3(c4ccccc4)CCOCC3)cc2)n1	92	86	nt	107
COc1cc(NC(=O)CCc2nc3sc4c(c3c(=O)[nH]2)CCCC4)cc(OC)c1	nt	nt	-19	102
O=C1S/C(=C\c2ccccc2)C(=O)N1CCN1C(=O)S/C(=C\c2ccco2)C1=O	80	87	-8	nt
COc1cccc(CNC(=O)CN2C(=O)N(c3cccc(Cl)c3)S(=O)(=O)c3ccccc32)c1OC	114	84	nt	104
O=C(CSc1cccc[n+]1[O-])N1CCc2ccccc21	93	89	-6	nt
CC(=O)Nc1nn2c(-c3ccco3)nnc2s1	86	83	nt	98
Cc1ccc(C(=O)c2cn(Cc3ccccc3)c3cc4c(cc3c2=O)OCCO4)cc1	96	97	18	101
O=C(CNC(=O)c1ccc(F)cc1)OCc1cc(=O)n2nc(C3CC3)sc2n1	85	84	nt	109

# (more compounds)
Structure	Sa growth 42C	Sa growth 42C second temp	HCMV NEC inh	GIV Gai3 FP
OCn1nc(-c2ccccc2Br)oc1=S	88	79	-27	95
COC(=O)c1ccc(C2C(S(=O)(=O)c3ccccc3)=C(O)C(=O)N2c2cccc(C)c2)cc1 (stereo not given)	nt	nt	4	101
O=C(CSc1ncc(S(=O)(=O)c2ccc(Br)cc2)c(=O)[nH]1)Nc1ccc2c(c1)OCCO2	106	79	-14	104
COc1ccc(C(=O)Nc2cc3c4c(c2)CCC(=O)N4CCC3)cc1OC	77	92	-8	101
N#CCCSc1nnc(Cc2cccc3ccccc23)n1C1CCCCC1	78	75	1	nt
COC(=O)Cc1cc(=O)oc2cc(O)ccc12	95	79	-20&-52	99
COc1cccc(OCC(=O)NCCS(=O)(=O)N2CCN(c3ccccc3F)CC2)c1	97	89	nt	104
O=C(O)c1ccc(S(=O)(=O)C(F)F)cc1	80	91	-6	nt

# Carrying on:
Structure	Sa growth 42C	Sa growth 42C second temp	HCMV NEC inh	GIV Gai3 FP
Cc1ccc(NC(=O)c2sc3nc(SCC(=O)NCc4ccco4)n(N)c(=O)c3c2C)c(C)c1	100	85	-10	101
Cc1cc(C)cc(-n2c(C)nc3cc(C(=O)NCc4ccc(F)cc4)ccc32)c1	100	98	nt	104
Cc1cccc(C)c1NC(=O)Cn1cc(S(=O)(=O)Cc2ccccc2F)c2ccccc21	nt	nt	-7	111
Cc1cc(-n2c(C)cc(/C=C/C(=O)N3CCN(Cc4cccs4)CC3)c2C)no1	133	92	8	nt
CC(C)(C)c1ccc(C(=O)N2CCC(C(=O)NN)CC2)cc1	103	87	nt	101
COC(=O)CN1C(=O)COc2ccc(Cl)cc21	97	89	-3	106&99
O=C(NCc1ccco1)C1CCN(c2nc3ccccc3n2Cc2ccccc2F)CC1	88	88	1	96
Cc1nc(-c2cccc(NC(=O)Nc3ccccc3C(F)(F)F)c2)no1	111	97	nt	107
COc1ccc(CNC(=O)CN2C(=O)COc3ccc(S(=O)(=O)N4CCCCCC4)cc32)cc1	124	81	nt	108
CC(C)c1cc(=O)n2[nH]c(CNc3ccc(Br)cc3)nc2n1	nt	nt	-31	108
Cc1ccc(C)c(NC(=O)Cn2cc(S(=O)(=O)c3ccc(F)cc3)c(=O)c3cc(F)ccc32)c1	115	82	-19	105
